Source: PubChem BioAssay
HTT promoter inh: HTT promoter inhibition; Potency, µM (titrated, usually from 57.5 µM), for inactives: top-dose activity change, negative = inhibition, hits mostly inhibitors; AID 1508623; 48,000 tested, 0.93% active; HEK293 HTT promoter firefly luciferase reporter (activity 0% = vehicle and -100% = no light), 24 h; active = well fitted inhibition curve with a large enough effect; inconclusive = small, poorly fitted or top-dose-only effect; inactive = no such curve, though single readings can be large or run the other way; note: nearly all actives have a fitted effect of over 50% in size
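HEK293 Fluc reporter, 2,500 cells/well, 24 h pre-culture; cpds up to 57.5 uM final, 24 h 37 degrees C; Dual-Glo, 10 min RT; normalized vehicle = 0%, zero RLU = -100%.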
PMP22 txn prim: PMP22 gene transcription modulation; S16 Pmp22-F2sN Schwann cells (luciferase reporters placed in the Pmp22 gene), FLuc/NLuc coincidence luminescence, 24 h; AID 1508649; Potency, µM (titrated, usually from 57.5 µM), inactives show top-dose activity change, negative = inhibition, hits mostly inhibitors; 43,000 tested, 2% active; active = clear falling dose curves in both reporters; inconclusive = both reporters move, but less clearly or upward; inactive = either reporter flat; the % is the NLuc reporter signal; note: % is set by controls: 0 for no effect and ±100 for the full control effect; some results filed as inactive show a strong effect at the top dose
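Luminescent read-out of sequential FLuc and NLuc signals from a reporter embedded in the Pmp22 3' UTR of S16 Schwann cells, taken after 24 h compound exposure at 37C; compounds reducing both signals score as inhibitors of expression.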
* = called active by the depositor; ? = inconclusive; . = not tested or not shown; & = joins results of further samples; [ ] = dose if it differs, or a comment. Potency is the fitted concentration of half-maximal effect. Rows were taken by chance; any-hit rate near 2.4%.

SMILES | HTT promoter inh | PMP22 txn prim
O=C(Cn1c(=O)nc(-c2ccccc2)c2cc(Cl)ccc21)NCc1ccccc1 | ? | ?
CCCCc1ccc(NS(=O)(=O)c2ccc(N3CCCCS3(=O)=O)cc2)cc1 | ? | -5%
COc1ccc(CNC(=O)C2CCC(CNS(=O)(=O)c3ccc4c(c3)CCCC(=O)N4)CC2)cc1 (stereo not drawn) | -24% | -22%
Nc1nc(N)c(S(=O)(=O)c2ccccc2)c(Nc2ccccc2)n1 | -14% | ?
CCOC(=O)C1=C(CS(=O)(=O)c2ccc(F)cc2)NC(=O)NC1c1ccc(OCC)c(OC)c1 (stereo not drawn) | -13% | -16%
O=C(c1ccc(Nc2nc3ccccc3n3nnnc23)cc1)N1CCN(c2ccc(F)cc2)CC1 | -8% | 4µM*
COc1ccc(S(=O)(=O)c2cc3cc(OC)ccc3oc2=O)cc1 | -4% | -13%
Cc1cccc(NC(=O)C2CCCN(S(=O)(=O)c3ccc4c(c3)oc(=O)n4C)C2)c1 (stereo not drawn) | ? | 1%
Cc1cc(Cl)ccc1OCC(=O)Nc1c(C(=O)c2ccccc2)oc2ccccc12 | -9% | -22%
O=c1[nH]c(=O)n([C@H]2C[C@@H](O)[C@@H](CO)O2)cc1I | 23% | .
CC(C)OCCCNC(=O)C(=O)Nc1c2c(nn1-c1ccccc1)CS(=O)(=O)C2 | -2% | 20%
CCOC(=O)CSc1nc(-c2ccc(Cl)cc2)cc(C(F)(F)F)c1C#N | -10% | -2%
Cc1ccc(NC(=O)Nc2csc3c2CCCC3)c(C)c1 | -7% | 4%
Cc1ccc(Cl)cc1NC(=O)c1sc2nc(-c3ccccc3)cn2c1C | -20% | -42%
COc1ccc(Cn2ccnc2SCC(=O)NC2CCCC2)cc1 | -24% | 7%
COc1ccc(NC(=O)c2ccco2)cc1NC(=O)COc1ccccc1 | -13% | 9%
CCC(=O)N1CCc2cc(S(=O)(=O)NC(C(=O)NCCc3cccc(C)c3)C(C)C)ccc21 (stereo not drawn) | -3% | -12%
COCCCNC(=O)C1CCN(C(=O)c2ccc(-n3ccc4ccccc43)s2)CC1 | 35%[activator] | 10%
CCCCS(=O)(=O)CC(O)CSc1nc(-c2ccc(C)cc2)cc(-c2ccccc2)c1C#N (stereo not drawn) | ? | -18%
O=C(NC1CCCCCC1)C1CCN(C(=O)N2CCOc3ccc(Cl)cc32)CC1 | -17% | -52%
COc1ccccc1CNC(=O)C1CCN(C2=NS(=O)(=O)C(c3ccc(C)c(C)c3)=C2C)CC1 | ? | ?
COc1ccc2c(c1)c1c(c(=O)n(-c3ccc(C)cc3)c(=O)n1CC(=O)NCc1ccc(C)cc1)n2C | -3% | -23%
CCn1cc(C(=O)O)c(=O)c2ccc(C)nc21 | -6%&-1% | .
CC(=O)Oc1ccc(C(c2ccc(OC(C)=O)cc2)c2ccccn2)cc1 | 3% | .
Cc1ccc(NC(=O)CN2C(=O)CCSc3ccc(S(=O)(=O)N4CCCC4)cc32)cc1C | -30% | 0%
Cc1ccc2nc(Cl)c3cc(C(=O)NC4CCCCCC4)sc3c2c1 | -9% | -10%
Cc1ccc(Sc2ccc(N3CCCC(C(=O)Nc4ccc(Br)cc4)C3)nn2)cc1 (stereo not drawn) | -31% | ?
FC(F)(F)c1cccc(N2CCN(c3nc4ccccc4n4cnnc34)CC2)c1 | ? | ?
CCCOc1ccc(C(=O)Nc2ccc3oc(-c4ccncc4)nc3c2)cc1 | -10% | 4%
CCN1CCOC(=O)C1CC(=O)Nc1cc(C)ccc1OC (stereo not drawn) | 10% | ?
CCOC(=O)c1c(C)oc2ncnc(N3CCN(c4ccccc4)CC3)c12 | ? | ?
C[C@@H]1C(=O)O[C@H]2CC34[C@H]5C[C@@H](C(C)(C)C)C36[C@H](OC(=O)[C@@H]6O)O[C@@]4(C(=O)O5)[C@]21O (stereo partly drawn) | -3% | .
Cc1ccc(-n2c(SCC(=O)Nc3ccc4c(c3)OCO4)nc3c([nH]c4ccccc43)c2=O)cc1 | -8% | -6%
Cc1cc(O)c(C(c2ccccc2Cl)N2CCN(c3ccccc3)CC2)c(=O)n1Cc1ccco1 (stereo not drawn) | 3% | ?
CCCOc1ccc(C(=O)N(Cc2ccco2)Cc2ccco2)cc1 | -9% | 8%
CCCCCn1cc2c(c1-c1ccccc1Br)c(=O)n(C)c(=O)n2C | ? | -18%
COc1ccc(S(=O)(=O)c2c(O)c3ccc(C(=O)NCc4ccc(F)cc4)cc3[nH]c2=O)cc1 | -1% | 0%
CCCCNC(=O)CCCn1c(=O)c2ccccc2n(Cc2c(C)cc(C)cc2C)c1=O | -10% | 9%
Cc1ccc(-c2nc(CS(=O)CC(=O)N3CCN(c4cccc(Cl)c4)CC3)c(C)o2)cc1 (stereo not drawn) | ? | ?
CC(=O)Nc1nonc1-c1nnc(SCC(=O)Nc2ccccc2)n1-c1ccccc1 | -21% | 30%
CCCc1ccc(OCC(=O)Nc2sc3c(c2C(=O)OCC)CCC(C(C)(C)C)C3)cc1 (stereo not drawn) | -12% | 5%
Cc1ccc(-c2nnc(Nc3ccc(O)cc3)c3ccccc23)cc1S(=O)(=O)NC(C)(C)CO | -19% | ?
CCOc1ccc(NC(=O)c2cc(C)nc3c2c(C)nn3-c2ccc(C)cc2)cc1 | 5% | -16%
CCOC(=O)N1CCc2c(sc3c2C(=O)NC(c2ccc(C(=O)OC)cc2)N3)C1 (stereo not drawn) | -20% | -8%
Cc1ccc(C)c(CNC(=O)CCn2cccn2)c1 | 1% | 9%
CCC(Sc1nnc(-c2ccc(F)cc2)c(-c2ccc(F)cc2)n1)C(=O)NC1CCCC1 (stereo not drawn) | -10% | -9%
Cc1cccc(N2CCN(S(=O)(=O)c3csc(C(N)=O)c3)CC2)c1C | 14µM* | ?
CCOc1ccc(CCNC(=O)CCCc2nnc3n(CCCOC)c(=O)c4sccc4n23)cc1 | -12% | 6%
CCOC(=O)c1ccc(NC(=O)CSc2nc(C)c(Cc3ccccc3)c(=O)[nH]2)cc1 | -16% | 1%
NC(CO)(CO)CCc1ccc(Sc2cccc(OCc3ccccc3)c2)cc1Cl | -28% | .
COc1ccccc1-c1cc2nc(C)c(CCC(=O)NCCc3cccc(C)c3)c(C)n2n1 | ? | ?
COC(=O)c1cc(S(=O)(=O)NCC2CCN(Cc3ccccc3F)CC2)c[nH]1 | -20% | -16%
CC(C)(C)c1ccc(S(=O)(=O)N2CCC(c3ccncc3)CC2)cc1 | 16µM* | ?
Cc1ccc(Cn2c(C(=O)O)c(CNCCc3ccco3)c3ccc(C)cc32)cc1 | -13% | -17%
O=S(=O)(c1ccc(-c2cc(C(F)(F)F)on2)s1)N1CCN(c2ccc(F)cc2)CC1 | -14% | ?
Cc1cc(C)cc(OCC(=O)Nc2nc3c(s2)CC(C(C)(C)C)CC3)c1 (stereo not drawn) | -18% | -9%
COc1ccc(CCNC(=O)Cc2c(C)c3cc4c(C(C)(C)C)coc4c(C)c3oc2=O)cc1 | -9% | -7%
COCCCNC(=O)c1c(NC(=O)c2cc(=O)c3ccccc3o2)sc2c1CCCC2 | ? | -5%
CCOc1cc(C2NC(=O)c3c(sc4c3CCN(C)C4)N2)ccc1OC(=O)c1ccc(Br)cc1 (stereo not drawn) | -4% | 4%
Cc1ccc(CCNC(=O)c2c(C)nn(-c3ccc(F)cc3)c2-n2cccc2)cc1 | ? | ?

Compound profiles, as listed above:
`COc1ccccc1CNC(=O)C1CCN(C2=NS(=O)(=O)C(c3ccc(C)c(C)c3)=C2C)CC1` in the list: HTT promoter inh: ?; PMP22 txn prim: ?
`CCCCCn1cc2c(c1-c1ccccc1Br)c(=O)n(C)c(=O)n2C` in the list: HTT promoter inh: ?; PMP22 txn prim: -18%

21 compounds already listed, ordered by SMILES length, lowest first.
SMILES | HTT promoter inh | PMP22 txn prim
CCn1cc(C(=O)O)c(=O)c2ccc(C)nc21 | -6%&-1% | .
Cc1ccc(NC(=O)Nc2csc3c2CCCC3)c(C)c1 | -7% | 4%
COc1ccc(Cn2ccnc2SCC(=O)NC2CCCC2)cc1 | -24% | 7%
CCCOc1ccc(C(=O)N(Cc2ccco2)Cc2ccco2)cc1 | -9% | 8%
COc1ccc(S(=O)(=O)c2cc3cc(OC)ccc3oc2=O)cc1 | -4% | -13%
Nc1nc(N)c(S(=O)(=O)c2ccccc2)c(Nc2ccccc2)n1 | -14% | ?
Cc1ccc(Cl)cc1NC(=O)c1sc2nc(-c3ccccc3)cn2c1C | -20% | -42%
CCOC(=O)c1c(C)oc2ncnc(N3CCN(c4ccccc4)CC3)c12 | ? | ?
NC(CO)(CO)CCc1ccc(Sc2cccc(OCc3ccccc3)c2)cc1Cl | -28% | .
CCOC(=O)CSc1nc(-c2ccc(Cl)cc2)cc(C(F)(F)F)c1C#N | -10% | -2%
Cc1cc(C)cc(OCC(=O)Nc2nc3c(s2)CC(C(C)(C)C)CC3)c1 (stereo not drawn) | -18% | -9%
Cc1cc(Cl)ccc1OCC(=O)Nc1c(C(=O)c2ccccc2)oc2ccccc12 | -9% | -22%
COC(=O)c1cc(S(=O)(=O)NCC2CCN(Cc3ccccc3F)CC2)c[nH]1 | -20% | -16%
Cc1ccc(CCNC(=O)c2c(C)nn(-c3ccc(F)cc3)c2-n2cccc2)cc1 | ? | ?
COc1ccccc1-c1cc2nc(C)c(CCC(=O)NCCc3cccc(C)c3)c(C)n2n1 | ? | ?
CCCCS(=O)(=O)CC(O)CSc1nc(-c2ccc(C)cc2)cc(-c2ccccc2)c1C#N (stereo not drawn) | ? | -18%
Cc1cc(O)c(C(c2ccccc2Cl)N2CCN(c3ccccc3)CC2)c(=O)n1Cc1ccco1 (stereo not drawn) | 3% | ?
COc1ccccc1CNC(=O)C1CCN(C2=NS(=O)(=O)C(c3ccc(C)c(C)c3)=C2C)CC1 | ? | ?
Cc1ccc(-n2c(SCC(=O)Nc3ccc4c(c3)OCO4)nc3c([nH]c4ccccc43)c2=O)cc1 | -8% | -6%
COc1ccc2c(c1)c1c(c(=O)n(-c3ccc(C)cc3)c(=O)n1CC(=O)NCc1ccc(C)cc1)n2C | -3% | -23%
C[C@@H]1C(=O)O[C@H]2CC34[C@H]5C[C@@H](C(C)(C)C)C36[C@H](OC(=O)[C@@H]6O)O[C@@]4(C(=O)O5)[C@]21O (stereo partly drawn) | -3% | .

(cont.)
SMILES | HTT promoter inh | PMP22 txn prim
CCOc1ccc(S(=O)(=O)NCCc2csc3nc(-c4cccc(C)c4)nn23)cc1 | ? | ?
CN(C1CCCCC1)S(=O)(=O)c1ccc(C(=O)Nc2sc3c(c2C(N)=O)CC(C)(C)NC3(C)C)cc1 | -20% | ?
COc1ccc(NC(=O)CCc2nc3cccnc3n2Cc2cccs2)c(OC)c1 | -10% | -2%
CCOCCc1nn2c(=O)cc(COC(=O)COc3ccccc3Cl)nc2s1 | -9% | -3%
Cc1cc(C)cc(NC(=O)Nc2ccccc2OCc2cc(=O)n3ccccc3n2)c1 | 12% | ?
CCC(=O)Nc1cccc(-c2nc3cc(C)ccc3o2)c1 | 16% | ?
CCCCNc1nc2c(c(=O)n(Cc3ccc(Cl)c(Cl)c3)c(=O)n2C)n1C | ? | ?
CCN(C(=O)CN(C)S(=O)(=O)c1ccc2c(c1)n(C)c(=O)c(=O)n2C)c1cccc(C)c1 | -19% | 6.5µM*
CC(=O)c1cccc(NC(=O)c2nc(-c3ccccc3)n(-c3cccc(Cl)c3)n2)c1 | -15% | ?
Cc1ccc(NS(=O)(=O)c2ccc3nc(-c4ccccc4)[nH]c3c2)c(Cl)c1 | ? | 4%
CCOc1ccc(NS(=O)(=O)c2ccc3[nH]cc(C(=O)NCCc4ccccc4)c(=O)c3c2)cc1 | 17% | -10%
CCOc1ccccc1NC(=O)c1c(NC(=O)C(C)Oc2ccc(Cl)cc2)sc2c1CCCCC2 (stereo not drawn) | -19% | -31%
O=C(CS(=O)(=O)c1cccc2nsnc12)Nc1ccccc1Cl | -4% | -23%
COc1cccc(CNC(=O)CSc2ccc(-c3sc(-c4ccccc4)nc3C)nn2)c1 | -30% | ?
COc1ccc2c(c1)c1c(c(=O)n(-c3ccccc3)c(=O)n1CC(=O)NCc1ccc(C)cc1)n2C | -10% | 2%
CCC(=O)N1CCc2cc(Br)cc(S(=O)(=O)CCC(=O)Nc3ccc(C)c(C)c3)c21 | -3% | -8%
CCc1nn(CC(=O)NCCC(C)C)c(=O)c2cc3occc3n12 | -7% | -15%
Cc1ccc(-c2nc3cc(Cl)ccc3o2)cc1NC(=O)c1cc2ccccc2o1 | 14% | ?
COc1ccc(OC)c(CNC(=O)c2c3c(nc4ccccc24)C(=O)N(C2CCCCC2)C3)c1 | -1% | ?
COc1ccccc1N1CCN(c2ccc(=O)n(CC(=O)O)n2)CC1 | -12% | 21%
NC[C@@H]1O[C@@H](O[C@H]2[C@@H](O)[C@H](O[C@@H]3[C@@H](O)[C@@H](N)C[C@H](N)[C@H]3O[C@H]3O[C@H](CN)[C@@H](O)[C@@H](O)[C@H]3N)O[C@H]2CO)[C@H](N)[C@@H](O)[C@@H]1O | 7% | .
COc1ccc(/C=C/c2noc(-c3ccccc3O)n2)cc1OC | 1% | -89%
Cn1cc(S(=O)(=O)N2CCCCC2)cc1C(=O)Nc1cccc(C#N)c1 | -14% | ?
